HCMV UL50-53 inh: cytomegalovirus nuclear egress complex inhibition | HTRF UL50-UL53 interaction, normalized percent inhibition | inhibition, % (test concentration not listed) | hit rate 0.15% among 190,000;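 active = both replicates at 50% or more, plus weaker picks with an unusually low signal ratio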;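 also: stock transfer was 100 nL into about 20 µL; 0% = negative control wells and 100% = wells with untagged competitor protein; inactives centre near -12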
GIV Gai3 FP: blocks GIV peptide binding to rat Galpha-i3; hit rate 0.42% among 210,000; percent of control (FP), % (concentration not given with the values); P08753; Galpha-i3/FITC-GIV peptide fluorescence polarization, 90 min; hits give low values; scaled: aluminum fluoride 0%, vehicle 100%;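 active = replicate mean at 85% of control or lower, very high polarization wells dropped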;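 also: wells of about 15 µL received 100 nL stock; the first replicate is given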
Target sequence (P08753 whole entry, looked up): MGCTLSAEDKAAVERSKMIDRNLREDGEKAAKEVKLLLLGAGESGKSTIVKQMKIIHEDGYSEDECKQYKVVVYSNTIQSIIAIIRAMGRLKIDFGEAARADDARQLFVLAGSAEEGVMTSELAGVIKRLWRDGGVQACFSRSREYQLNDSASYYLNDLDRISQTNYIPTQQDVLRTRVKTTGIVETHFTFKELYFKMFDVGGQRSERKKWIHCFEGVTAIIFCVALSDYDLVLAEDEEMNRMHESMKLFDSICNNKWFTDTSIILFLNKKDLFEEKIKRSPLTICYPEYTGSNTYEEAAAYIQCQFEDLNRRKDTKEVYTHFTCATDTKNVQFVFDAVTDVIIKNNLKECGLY
Sa growth inh: blocks Staphylococcus aureus growth; S. aureus RN4220 growth, OD600, 20 h, 42 °C; hits give low values; relative growth, % (concentration not given with the values); hit rate 0.53% among 170,000;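 active = growth at 42 °C up to 50% and 20 or more points under that at 30 °C, or under 10% at both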;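 also: 300 nL library stock went into each well; scaled to the means of positive and negative controls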
Sa growth inh second temp: also measured in Sa growth inh; calls as there; relative growth, %; measured here: growth at 30 °C;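 optical density after 20 h as mean of two plates; 100% = untreated growth and lower means inhibition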
Starred values were filed as active, the others as inactive; / = no result given; & = joins results of further samples.

Letter code – A = HCMV UL50-53 inh; B = GIV Gai3 FP; C = Sa growth inh; D = Sa growth inh second temp
> COc1ccc(OC)c(CCNC(=O)CCCn2c(=O)c3cccn3c3ccccc32)c1
  A = -18; B = 100; C = 102; D = 81

> Cc1cccc(N2CCN(C(=O)C(Cc3ccccc3)NC(N)=O)CC2)c1C (stereo unspecified)
  A = -39; B = /; C = 82; D = 86

> CC(C)c1ccc(NC(=O)c2cc3c(=O)oc4ccccc4c3s2)cc1
  A = -16; B = 100; C = 105; D = 85

> COc1cc(OC)c(NS(=O)(=O)c2c(C(=O)N3CCCCCC3)c(C)n(C)c2C)cc1Cl
  A = /; B = 99; C = 88; D = 92

> Cc1cccc(-n2ncc3c(Nc4ccc(C)c(Cl)c4)ncnc32)c1
  A = /; B = 103; C = 124; D = 98

> CCN=C1SC(C(=O)Nc2ccc(OCC)cc2)CC(=O)N1CC (stereo unspecified)
  A = -17; B = 105; C = 89; D = 86

> COc1ccc(-c2nc(CN3CCN(S(C)(=O)=O)CC3)c(C)o2)cc1
  A = -28; B = 103; C = /; D = /

> COc1ccccc1NC(=O)Cn1c(=O)n(Cc2ccccc2)c(=O)c2ccccc21
  A = -12; B = 101; C = 100; D = 85

> COc1cccc(C(=O)Nc2cc(F)cc(F)c2)c1
  A = -24; B = 102; C = 111; D = 88

> COc1ccc(OC)c(-c2nnc3n(Cc4ccccc4)c(=O)c4ccccc4n23)c1
  A = -10; B = 98; C = /; D = /

> O=C(Oc1ccc(Oc2ccccc2)cc1)N1CCC(OC(=O)n2ccnc2)CC1
  A = 14; B = 104; C = 100; D = 94

> CCOC(=O)c1c(NC(=O)c2cccc(C)c2)sc(C(=O)Nc2cc(C(F)(F)F)ccc2Cl)c1C
  A = -26; B = 97; C = /; D = /

> Cc1cccc(-c2nc3scc(CCNS(=O)(=O)c4ccc(Oc5ccccc5)cc4)n3n2)c1
  A = /; B = 102; C = 95; D = 88

> COc1ccc(-c2nn3c(-c4ccc(N(C)C)cc4)nnc3s2)cc1
  A = 3; B = 114; C = /; D = /

> Cc1c(C(=O)N2CCCCC2)sc2nc[nH]c(=O)c12
  A = -6; B = /; C = 108; D = 93

> CCOc1ccc(NC(=O)c2sc3ncnc(N4CCN(c5ccccn5)CC4)c3c2C)cc1
  A = 15&-11; B = 105&94; C = /; D = /

> CSc1sc(C(=O)O)c(I)c1S(=O)(=O)C(C)C
  A = -14; B = 105; C = 103; D = 90

> CCOC(=O)c1nc(NCc2cccs2)c2ccccc2n1
  A = -26; B = 104; C = 93; D = 82

> CN(C)C(=O)n1nc2c3c(cccc31)C(=O)c1ccccc1-2
  A = 36; B = /; C = 97; D = 98

> CC(=O)Nc1cccc(-c2nnc(SCc3ccccc3)o2)c1
  A = -6; B = 99; C = 102; D = 96

> O=C(c1ccc(Br)o1)n1cnc2ccccc21
  A = -3; B = 99; C = 140; D = 104

> CCc1ccc(N2CC(c3nnc(NC(=O)c4c(-c5ccccc5)noc4C)s3)CC2=O)cc1 (stereo unspecified)
  A = 4; B = 105; C = /; D = /

> Cc1ccc(C(=O)COC(=O)C(Cc2c[nH]c3ccccc23)NC(=O)c2ccc(C(C)(C)C)cc2)cc1 (stereo unspecified)
  A = /; B = 107; C = 106; D = 89

> O=c1nc(SCc2ccccc2)nc2ccccn12
  A = -36; B = 95; C = 84; D = 79

> Brc1ccc(C=NC2CCCCC2)cc1
  A = /; B = 94; C = 80; D = 89

Next compounds
Letter code – A = HCMV UL50-53 inh; B = GIV Gai3 FP; C = Sa growth inh; D = Sa growth inh second temp
> CC1=C(C(=O)Nc2cccc(C)n2)C(c2cccc(Oc3ccccc3)c2)C2=C(CC(C)(C)CC2=O)N1 (stereo unspecified)
  A = -14; B = 102; C = /; D = /

> Cc1cc(C)n2nc(CCc3ccccc3)nc2n1
  A = -25; B = 101; C = /; D = /

> Cc1ccc(CSc2nc(=O)c3c(n2C)NC(=O)CC3c2ccc(OC(C)C)cc2)cc1 (stereo unspecified)
  A = 0; B = 106; C = 87; D = 95

> CC1=C(c2ccc(C(C)C)cc2)S(=O)(=O)N=C1N1CCC(C(=O)NCc2ccccc2)CC1
  A = /; B = 96; C = 103; D = 80

> CS(=O)(=O)Cc1cc(F)cc2c1OCOC2
  A = -30; B = 104; C = 102; D = 92

> CC(=O)Nc1ccc(S(=O)(=O)N2CCN(C(=O)c3nsc4ccc(C)cc34)CC2)cc1
  A = 8; B = 103; C = /; D = /

> COc1ccc(OC)c(-c2nc(C(N)=O)c3c(n2)n(-c2ccc4c(c2)OCO4)c(=O)n3C)c1
  A = /; B = 106; C = 92; D = 79

> Cc1ccccc1C(=O)N(Cc1ccc(N(C)C)cc1)CC1CCCO1 (stereo unspecified)
  A = -38&-22; B = 103&104; C = 104; D = 84

> O=C(Nc1ccc2oc(-c3cccc(Cl)c3Cl)nc2c1)c1cccc(Br)c1
  A = -25; B = 104; C = 98; D = 93

> CC(=O)Oc1ccccc1C(=O)NC(C)c1ccccc1 (stereo unspecified)
  A = -8; B = /; C = 78; D = 32

> COC(=O)c1ccc2c(=O)[nH]c(CSc3nnc(-c4cccs4)n3N)nc2c1
  A = 6; B = /; C = 103; D = 94

> COc1cc(OC)c(NC(c2nnc(-c3ccccc3)o2)c2ccc(F)cc2Cl)cc1Cl (stereo unspecified)
  A = -2; B = 106; C = 97; D = 92

> CCOC(=O)N1CCC(NC(=O)CCN2C(=O)C3C4C=CC(C4)C3C2=O)CC1 (stereo unspecified)
  A = -13; B = 104; C = 94; D = 90

> c1ccc2c(c1)c1ccccc1n2CCOCCN1CCCCC1
  A = 6; B = /; C = 102; D = 76

> Cc1noc2ncnc(SCC(=O)c3ccc(Cl)cc3)c12
  A = 1; B = 101; C = 100; D = 96

> Cc1noc(C(=O)N2CCC(Cc3ccccc3)CC2)c1Cl
  A = -5; B = 101; C = 88; D = 73

> COc1ccccc1CNc1ncnc2onc(-c3ccc(F)cc3)c12
  A = /; B = 98; C = 95; D = 91

> COc1ccc(C(C)C)cc1S(=O)(=O)N1CCCC1
  A = -3; B = 101; C = 99; D = 96

> O=C(Nc1cccnc1)c1nc2ncccn2n1
  A = /; B = 105; C = 100; D = 92

> CCCc1n(CC(O)COc2ccccc2C)c2ccccc2[n+]1C (stereo unspecified)
  A = /; B = 106; C = 94; D = 78

> CN(C)c1c(F)cc(C(N)=O)cc1F
  A = 6; B = 103; C = 112; D = 95

> Cc1ccc2oc(=O)c3cc(C(=O)NC4CC4)sc3c2c1
  A = -10; B = 106; C = 97; D = 86

> Cc1ccc(NC(=O)Cn2nc(C)c3nn(-c4ccc(Cl)cc4)c(C)c3c2=O)cc1F
  A = /; B = 102; C = 86; D = 93

> O=S(=O)(c1ccc(Cl)cc1Cl)n1ccnc1
  A = -9; B = 102; C = 96; D = 94

> Cc1ccccc1CN1CCN(CCOCCO)CC1
  A = 5; B = 103; C = 104; D = 110

Part of the list above, in CSV form.
Structure,HCMV UL50-53 inh,GIV Gai3 FP,Sa growth inh,Sa growth inh second temp
CCOc1ccc(NC(=O)c2sc3ncnc(N4CCN(c5ccccn5)CC4)c3c2C)cc1,15&-11,105&94,/,/
COc1cc(OC)c(NC(c2nnc(-c3ccccc3)o2)c2ccc(F)cc2Cl)cc1Cl (stereo unspecified),-2,106,97,92
CCOC(=O)c1c(NC(=O)c2cccc(C)c2)sc(C(=O)Nc2cc(C(F)(F)F)ccc2Cl)c1C,-26,97,/,/
COc1ccc(-c2nn3c(-c4ccc(N(C)C)cc4)nnc3s2)cc1,3,114,/,/

Part of the list above in order of number of heavy atoms, rising:
Letter code – A = HCMV UL50-53 inh; B = GIV Gai3 FP; C = Sa growth inh; D = Sa growth inh second temp
> CS(=O)(=O)Cc1cc(F)cc2c1OCOC2
  A = -30; B = 104; C = 102; D = 92

> Cc1ccccc1CN1CCN(CCOCCO)CC1
  A = 5; B = 103; C = 104; D = 110

> Cc1noc2ncnc(SCC(=O)c3ccc(Cl)cc3)c12
  A = 1; B = 101; C = 100; D = 96

> COc1ccc(OC)c(-c2nc(C(N)=O)c3c(n2)n(-c2ccc4c(c2)OCO4)c(=O)n3C)c1
  A = /; B = 106; C = 92; D = 79

The results go on.
Letter code – A = HCMV UL50-53 inh; B = GIV Gai3 FP; C = Sa growth inh; D = Sa growth inh second temp
> CCOc1ccc(/C=C(\C#N)C(=O)Nc2sc3c(c2C(=O)OC)CCC3)cc1OC
  A = 20; B = 110; C = 93; D = 94

> O=C1NC(=O)N(Cc2ccccc2Cl)C(=O)/C1=C/N1CCCCC1
  A = -16; B = 108; C = 110; D = 99

> CCN(CCCNC(=O)c1cc2c(Cl)nc3ccccc3c2s1)Cc1ccccc1
  A = -35; B = 102; C = 118; D = 92

> Cc1ccc(-n2nnc3c(=O)oc4ccccc4c32)cc1
  A = -7; B = 101; C = 96; D = 82

> CC(C)=CC(=O)ON1C(=O)C2C3C=CC(O3)C2C1=O (stereo unspecified)
  A = -7; B = 100; C = 97; D = 83

> CCOc1ccccc1NC(=O)c1ccc2c(Cl)c3c(nc2c1)CCCC3
  A = -16; B = 103; C = 112; D = 87

> Cc1cccc(CSc2nc3cccnc3n2Cc2ccccc2C)c1
  A = -17; B = 101; C = /; D = /

> O=C(O)CN=C1NC2(CCCCC2)Cc2ccccc21
  A = 2; B = 104; C = 121; D = 87

> CCOC(=O)N1CCN(C(=O)CNC(=O)Cn2cnc3ccccc3c2=O)CC1
  A = 7; B = 105; C = 92; D = 105

> O=C1c2ccccc2S(=O)c2ccccc2S(=O)(=O)N1Cc1ccccc1 (stereo unspecified)
  A = 7; B = 98; C = 94; D = 92

> CC(C)(C)C1CCc2nc(NC(=O)c3cccc(Cl)c3)sc2C1 (stereo unspecified)
  A = -3; B = 100; C = 13*; D = 34*

> O=C(CN(c1ccc(F)cc1)S(=O)(=O)c1ccc2c(c1)OCCO2)N1CCN(Cc2ccc3c(c2)OCO3)CC1
  A = -4; B = 102; C = 105; D = 96

> CN(C)CCC(=O)NN
  A = -25; B = /; C = 92; D = 86

> CN1CC(=O)N(c2ccccc2)C1=S
  A = -7; B = 101; C = 100; D = 101

> O=S(=O)(c1cccc2cccnc12)N1C=CC(C(F)(F)F)=NCC1
  A = -19; B = 100; C = 83; D = 83

> COc1ccc(-c2cc(OCC(=O)Nc3ccc4c(c3)OCCO4)c3ccccc3n2)cc1
  A = -28; B = 101; C = /; D = /

> CCC1CCCCN1C(=O)Cn1c(C(=O)OC)cc2sc(Cl)cc21 (stereo unspecified)
  A = /; B = 109; C = 107; D = 91

> O=C(NCCc1ccco1)c1cn(-c2ccc(F)cc2)nn1
  A = -12; B = 110; C = 93; D = 94

> COc1ccc(-c2cc(C(=O)N3CCCCC3)no2)cc1
  A = 6; B = 95; C = 118; D = 95

> Cc1[nH]c2c(C)cccc2c1CCNC(=O)c1cc2ccccc2oc1=O
  A = -21; B = 98; C = 109; D = 86

> CCCS(=O)(=O)N1CCN(S(=O)(=O)CCC)CC1
  A = -3; B = 108; C = 71; D = 82

> Cc1ccc2[nH]c3c(c2c1)CCCC3N1CCc2ccccc21 (stereo unspecified)
  A = /; B = 98; C = 62; D = 83

> O=C(Cn1c(=O)c2cccn2c2ccc(F)cc21)N1CCN(C(=O)c2ccco2)CC1
  A = 18; B = 107; C = 96; D = 94

> CC(C)(C)C1CCC(OC(=O)CCC(=O)O)CC1 (stereo unspecified)
  A = -13; B = 101; C = 104; D = 94

> O=C(O)CCC(=O)c1ccc2c(c1)OCCCO2
  A = 6; B = 102; C = 74; D = 88

> C/C(=N\OCC(=O)N1c2ccccc2CC1C)c1cc2ccccc2o1 (stereo unspecified)
  A = 3; B = /; C = 119; D = 95

> O=C(Nc1ccc(Br)cc1F)N1CC=C(c2c[nH]c3ccccc23)CC1
  A = /; B = 166; C = 109; D = 91

> CCCCn1c(SCC(=O)Nc2cccc(OC)c2)nc2ccsc2c1=O
  A = /; B = 114; C = 108; D = 99

3 compounds drawn at random from those above, as already listed:
Letter code – A = HCMV UL50-53 inh; B = GIV Gai3 FP; C = Sa growth inh; D = Sa growth inh second temp
> CCOc1ccc(/C=C(\C#N)C(=O)Nc2sc3c(c2C(=O)OC)CCC3)cc1OC
  A = 20; B = 110; C = 93; D = 94

> CCOc1ccccc1NC(=O)c1ccc2c(Cl)c3c(nc2c1)CCCC3
  A = -16; B = 103; C = 112; D = 87

> CCC1CCCCN1C(=O)Cn1c(C(=O)OC)cc2sc(Cl)cc21 (stereo unspecified)
  A = /; B = 109; C = 107; D = 91

High-throughput results from PubChem BioAssay.

The order is random; any-hit rate near 0.83%.
